Ecoli growth: E. coli growth inhibition, primary screen, OD600; Escherichia coli growth, 23 h; hits give low values; OD600 absorbance (concentration not given with the values); 330,000 tested, 0.21% active; AID 1053175, 2014;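 active = OD600 absorbance below the run mean of sample wells minus 3.6 SD, in any replicate, cut at about 0.56 in these data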;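 note: stock transfer was 300 nL into about 60 µL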
rRNA inh HTS: reduced GFP signal of wild-type E. coli, primary screen, bacterial rRNA inhibitor project, GFP/RFP fluorescence, OD600, single point | E. coli WT GFP vs humanized-ribosome RFP mutants, 24 h; hits give low values; DMSO median 0, no signal -100 | 350,000 tested, 1.6% active | AID 720706, 2013 | GFP signal change (wild-type ribosome), % (no concentration beside the values);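 active = significant combined selectivity score with lowered wild-type GFP, culture density cut under 30%, mutant RFP and density less affected; inactive = any of these conditions unmet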; note: one replicate is shown; some compounds called inactive have numbers as strong as hits
ALR H2O2 inh: inhibitors of human ALR sulfhydryl oxidase, primary screen, biochemical, H2O2 detection, HRP-luminol luminescence, single point; AID 485317, 2010; 290,000 tested, 3.8% active; FAD-linked sulfhydryl oxidase ALR (Homo sapiens), P55789; purified ALR, DTT oxidation; inhibition, % (no concentration beside the values);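 active = mean and each replicate at 75% or more; inconclusive = only one of the two met; inactive = neither met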;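 note: stock transfer was 7.5 nL into about 7.5 µL; 0% = neutral wells and 100% = wells with inactivated enzyme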
Target sequence (P55789 whole entry, looked up): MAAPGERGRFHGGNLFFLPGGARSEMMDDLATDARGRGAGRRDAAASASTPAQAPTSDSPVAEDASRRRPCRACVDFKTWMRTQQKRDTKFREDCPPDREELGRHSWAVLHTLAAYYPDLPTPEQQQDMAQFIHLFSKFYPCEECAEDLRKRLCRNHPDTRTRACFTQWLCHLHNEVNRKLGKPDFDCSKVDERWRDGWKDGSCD
MLL AF4-AF9 inh: inhibitors of AF4 peptide binding to AF9, primary screen, biochemical, AlphaScreen, biotin-AF4 peptide, FLAG-AF9, single point | Protein AF-9 (Homo sapiens), P42568 | inhibition, % at 10 µM | 350,000 tested, 0.47% active;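 active = every replicate reaching a set inhibition limit, whatever the replicate mean, cut at about 25% in these data; inconclusive = mean inhibition reaches that limit but some replicates miss it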;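 note: 0% = plate neutral control median and 100% = total signal loss; the record names both 10 and 1 µM as test concentration; the first replicate is given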
FGF22 binding: binders of human FGF22 protein, primary screen, FGF22 synaptogenesis inhibitor project, biophysical, thermal shift, single point. Fibroblast growth factor 22 (Homo sapiens), Q9HCT0. recombinant FGF22 thermal shift, SYPRO orange fluorescence; percent of sucrose octasulfate shift, DMSO zero. calls only at 9.99 µM. 340,000 tested, 1.5% active;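 active = melting point raised past a set limit in the mean and every replicate; inconclusive = no clear call; three in four hits are not shown here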
Target sequence (Q9HCT0 whole entry, looked up): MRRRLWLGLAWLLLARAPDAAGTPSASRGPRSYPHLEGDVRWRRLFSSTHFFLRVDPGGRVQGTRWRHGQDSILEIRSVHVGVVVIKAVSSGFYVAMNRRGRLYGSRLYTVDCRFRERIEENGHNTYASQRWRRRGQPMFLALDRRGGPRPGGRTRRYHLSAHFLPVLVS
HNF4A DNA FP: change in binding of human HNF4A to DNA, primary screen, biochemical, fluorescence polarization, FITC-DNA; Hepatocyte nuclear factor 4-alpha (Homo sapiens), P41235; 1 h; activity change, % at 10 µM; 360,000 tested, 0.3% active; AID 1224865, 2016; in the data active = activity change above about 30%, passing the limit was not always enough;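 note: controls were the assay level and a saturating level of protein; the project sought stronger binding though the title names inhibitors; some compounds called inactive have numbers as strong as hits; positive values seem to mean higher polarization but the record does not say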
Target sequence (P41235 whole entry, looked up): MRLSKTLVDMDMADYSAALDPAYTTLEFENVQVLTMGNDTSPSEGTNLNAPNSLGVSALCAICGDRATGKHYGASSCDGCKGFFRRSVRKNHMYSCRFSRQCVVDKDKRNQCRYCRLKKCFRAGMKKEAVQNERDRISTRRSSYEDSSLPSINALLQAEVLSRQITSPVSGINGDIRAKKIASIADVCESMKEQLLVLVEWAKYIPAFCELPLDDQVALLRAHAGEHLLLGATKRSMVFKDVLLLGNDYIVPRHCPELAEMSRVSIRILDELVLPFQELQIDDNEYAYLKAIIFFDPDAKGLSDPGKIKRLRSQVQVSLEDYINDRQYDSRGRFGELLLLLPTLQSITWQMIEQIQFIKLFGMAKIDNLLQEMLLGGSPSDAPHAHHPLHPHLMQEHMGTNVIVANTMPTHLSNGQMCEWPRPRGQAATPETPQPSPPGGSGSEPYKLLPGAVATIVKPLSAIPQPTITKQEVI
Vif A3G: inhibitors of Vif binding to APOBEC3G peptide, primary screen, biochemical, TR-FRET, GST-Vif 1-94, biotin-A3G peptide, dose response retest (AID 1117319); Virion infectivity factor (Human immunodeficiency virus type 1 group M subtype B (isolate …; TR-FRET GST-Vif / biotin-A3G peptide binding; higher % means a stronger effect; test concentration not given here; strong numbers were not always called active; one-dose inhibition, %; IC50 in µM for titrated hits; 260,000 tested, 0.57% active;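 active = above the screen mean plus three standard deviations and confirmed in dose response; inconclusive = results disagree or hit not tested in dose response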;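 note: Vif residues 1-94 fused to GST binding biotinylated APOBEC3G peptide 110-148; 0% = full assay without inhibitor and 100% = GST in place of GST-Vif; retest series ran down from 100 µM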
rRNA inh HTS OD600: second read-out of rRNA inh HTS, no call of its own (marks repeat the call); OD600 change, %; measured here: OD600 growth;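 optical density of the mix in the first replicate; 0 = DMSO median and -100 = no signal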
rRNA inh HTS RFP: also measured in rRNA inh HTS; calls as there; RFP signal change, %; measured here: RFP humanized mutant strains;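 first replicate; 0 = DMSO median and -100 = no signal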
Numbers without * were called inactive; i = inactive; ? = inconclusive; nt = not tested or not shown; & = joins results of further samples.

Every second line gives: Ecoli growth, rRNA inh HTS, rRNA inh HTS OD600, rRNA inh HTS RFP, ALR H2O2 inh, MLL AF4-AF9 inh, FGF22 binding, HNF4A DNA FP, Vif A3G
1: O=C(c1ccco1)N1CCC(c2nc3c(nnn3Cc3ccc(F)cc3)c(=O)[nH]2)CC1
→ 0.67, -3, -9, 0.5, 5, 0.5, i, 2.6, nt
2: CCC(=O)N(C)C[C@H]1Oc2cc(-c3ccccc3OC)ccc2S(=O)(=O)N([C@@H](C)CO)C[C@H]1C
→ nt, 3, 6, 0.1, nt, 0.4, i, nt, nt
3: CC(C)NC(=O)Nc1ccc2c(c1)C(=O)N([C@H](C)CO)C[C@H](C)[C@@H](CN(C)Cc1ccccc1)O2
→ nt, 2, 11, -3.3, nt, -2.9, i, nt, nt
4: CC(C)C#Cc1ccc2c(c1)O[C@@H](CN(C)C(=O)Cc1ccccn1)[C@H](C)CN([C@@H](C)CO)S2(=O)=O
→ nt, 4, -5, 9.1, nt, 3.1, i, nt, nt
5: COc1ccc(NC(=O)COC(=O)C(CC(C)C)N2C(=O)C3CC=CCC3C2=O)cc1Cl (configuration not stated)
→ 0.7, 2, 9, 5.7, -25, -0.9, i, -0.2, nt
6: COCCNC(=O)/C(C#N)=C/c1c(N2CCN(c3ccccc3)CC2)nc2c(C)cccn2c1=O
→ 0.7, 3, 3, -1.3, 2, 9.2, i, 5.6, -4%
7: Cc1cccc(NC(=O)c2nc[nH]c2C(=O)NCCCCCNC(=O)OC(C)(C)C)c1
→ 0.67, -3, 6, 6.3, 1, 1.1, i, 2.8, nt
8: COc1ccc(OC)c(S(=O)(=O)N2CCCC(C(=O)NC3CC3)C2)c1 (configuration not stated)
→ nt, 5, 10, -1.4, nt, -1.8, i, 0.8, nt
9: CCCS(=O)(=O)c1csc(C(=O)OC)c1N
→ 0.68, 9, 6, 0.9, -13, nt, i, 1.7, 4%
10: O=C1CC(C(=O)Nc2ccc(C(=O)O)cc2)C(c2ccccc2)O1 (configuration not stated)
→ 0.69, nt, nt, nt, 1, nt, nt, -1.2, -2%
11: Cc1cc(NC(=O)COc2c(C)cccc2C)no1
→ 0.7, 12, 8, 1.6, nt, 0.1, i, -0.4, 31%
12: COc1ccc(NC(=O)Nc2cc(C)ccc2F)cc1
→ 0.68, 9, 0, -1.3, 0, nt, nt, 0.2, -11%
13: Cc1oc2c(c1C(=O)NCCO)CCCC2
→ 0.72, nt, nt, nt, nt, nt, nt, -0.9, 33%
14: Nc1nnc(CC(=O)NCc2ccccc2)s1
→ 0.71, nt, nt, nt, -5, nt, nt, 0.5, -3%
15: O=C(C[C@@H]1C=C[C@H](NC(=O)Nc2ccc(F)cc2)[C@@H](CO)O1)NCc1cccc(F)c1
→ nt, 1, -1, -3.1, nt, -1.8, i, nt, nt
16: O=C1CC(NS(=O)(=O)c2ccc3ccccc3c2)CN1c1ccccc1 (configuration not stated)
→ 0.63, 3, -11, 4.9, -2, -2.1, i, -2.5, -1%
17: COc1ccc(NC(=O)C(F)(F)F)cc1OC
→ 0.81, nt, nt, nt, nt, nt, nt, 1.2, 4%
18: C[C@H]1CN([C@@H](C)CO)C(=O)c2cc(-c3ccc(F)cc3)cnc2O[C@@H]1CN(C)C(=O)CN(C)C
→ nt, 7, 11, -2.0, nt, -0.3, i, nt, nt
19: CCCC(=O)Nc1ccc2c(c1)C(=O)N(C)C[C@H](OC)[C@H](C)CN(CCC)[C@H](C)CO2
→ nt, 1, -1, 0.0, nt, 0.1, i, nt, nt
20: C[C@@H]1CN([C@@H](C)CO)C(=O)c2cc(N(C)C)ccc2O[C@@H]1CN(C)S(=O)(=O)c1cn(C)cn1
→ nt, -1, 4, -0.6, nt, -2.0, i, nt, nt
21: CCCCC(CC)CNC(=O)c1cc2ccccc2c(=O)o1 (configuration not stated)
→ 0.71, -15, -10, -3.6, nt, 4.0, i, -1.4, 25%
22: CCOC(=O)c1nn(-c2ccc(Cl)cc2)c2nnc(Cc3ccccc3)c(=O)n12
→ nt, nt, nt, nt, -4, nt, nt, 0.8, -23%
23: COc1cc(S(=O)(=O)N2CCN(C(=O)c3ccccc3)CC2)c(OC)cc1Br
→ 0.65, -8, -8, 0.8, 0, -0.4, i, 2.8, 5%
24: O=S(=O)(Nc1cccnc1Cl)c1ccc(F)cc1
→ 0.69, 1, -1, -0.8, nt, -3.9, i, 3.0, nt
25: CCC(=O)N1CCCC1(C)C(=O)Nc1ccc(OC(F)F)cc1 (configuration not stated)
→ nt, 5, 8, -0.8, nt, -2.1, i, -0.5, nt
26: O=S1(=O)c2cc(Cl)ccc2N2CCC[C@@H]2CN1Cc1ccc(Cl)c(Cl)c1
→ nt, 6, 15, 14, nt, -3.1, i, nt, nt
27: Cc1cc(C)c(S(=O)(=O)N2CCN(c3ccc([N+](=O)[O-])c(NCc4ccco4)c3)CC2)c(C)c1
→ 0.75, 8, 12, -4.3, 4, 1.7, i, 0.7, -7%
28: Cc1cccc(NC(=S)NNC(=O)c2csc(C(C)C)c2)c1
→ 0.7, nt, nt, nt, 10, nt, nt, 2.7, 11%
29: CCOC(=O)N1CCN(C2CCCN(C(=O)c3ccccc3SC)C2)CC1 (configuration not stated)
→ 0.7, 7, 9, -1.8, -4, -0.7, i, -2.5, nt
30: NC(=S)NNC(=O)c1ccccc1
→ 0.7, nt, nt, nt, 26, nt, nt, -1.2, ?
31: CCC(=O)Nc1ccc2c(c1)C(=O)N(C)C[C@H](OC)[C@H](C)CN(C(=O)CC)[C@H](C)CO2
→ nt, 3, 4, 1.0, nt, -2.5, i, nt, nt
32: O=C(CSc1nnc(-c2cccs2)n1Cc1ccco1)c1ccc2c(c1)OCO2
→ 0.68, nt, nt, nt, 0, nt, nt, -0.4, 5%
33: N#Cc1c(NC(=O)CCn2cnc3ccccc3c2=O)oc(-c2ccccc2)c1-c1ccccc1
→ 0.74, nt, nt, nt, -2, nt, nt, 0.6, 0%&7%
34: COC(=O)c1ccc2c(C)c(C3(O)CCCCC3)[nH]c2c1
→ 0.67, -8, -8, -11, 2, 4.7, i, -0.2, nt
35: Cc1cccc(C)c1NC(=S)N(Cc1ccco1)C1CCN(C(C)C)CC1
→ 0.69, nt, nt, nt, -11, -1.7, i, 3.1, -8%
36: O=C(O)C1Nc2c(O)cccc2C2C=CCC12 (configuration not stated)
→ 0.72, 9, -4, 3.6, 12, 4.9, i, -46, 0.25µM*
37: O=C(NCCSc1ccccc1)c1ccco1
→ 0.66, nt, nt, nt, -7, nt, nt, -1.3, -3%
38: Cc1ccc2c(Cl)c(Cc3ccccc3)c(=S)[nH]c2n1
→ nt, 3, -2, 6.2, nt, -6.5, i, -3.2, 0%
39: COc1cc(C(=O)N(Cc2ccccn2)CC2CCCO2)cc(OC)c1OC (configuration not stated)
→ 0.71, -1, 6, -10, -4, 4.1, i, -1.9, 4%
40: Cc1c(NC(=O)Nc2ccc(Cl)c(Cl)c2)sc(=S)n1C
→ nt, nt, nt, nt, 13, nt, nt, -0.7, 0%
41: CC1CCCCC1NC(=O)CSc1nnc(N)s1 (configuration not stated)
→ 0.73, nt, nt, nt, -3, nt, nt, -1.7, 4%
42: CC12CCC(C(=O)NCC3CCCO3)(OC1=O)C2(C)C (configuration not stated)
→ 0.65, nt, nt, nt, -1, nt, nt, -1.0, 3%
43: O=C(NCCN1CCN(c2ccccc2F)CC1)C1CC(=O)N(C2CCCC2)C1 (configuration not stated)
→ 0.7, 14, -3, 2.2, 1, 2.3, i, 0.5, 0%
44: CCOc1ccc(NC(=O)N(CCCN2CCOCC2)Cc2cccnc2)cc1
→ 0.73, 12, 18, 0.1, -6, -4.9, i, 0.5, 7%
45: O=C(O)c1ccccc1NC(=S)NC(=O)c1sc2ccccc2c1Cl
→ 0.66, -9, -2, 2.7, -11, -2.4, i, -1.1, -17%
46: CC1(C(=O)NCc2ccc(C(F)(F)F)cc2)CCN1C1Cc2ccccc2C1 (configuration not stated)
→ nt, -29, -42, -8.3, nt, -1.4, i, -3.7, nt
47: Cc1cc(C)cc(NC(=O)CSc2nc3nc(C)cc(C)c3c(=O)[nH]2)c1
→ 0.66, -8, -4, 1.7, 99*, -7.0, i, -3.8, -6%
48: CCCc1cc(=O)[nH]c2nnc(SCC(=O)Nc3cc(C)on3)n12
→ 0.7, 10, 13, 1.5, nt, 1.0, i, -0.8, -2%
49: COc1ccc(OCc2cc(C(=O)NCc3cccc(C)n3)no2)c(Cl)c1
→ 0.69, -30, -39, -2.9, -17, -1.7, i, 3.7, -2%
50: CCOc1ccc(OCCCC(=O)NCCc2ccc(OC)cc2)cc1
→ 0.64, 2, 10, 4.7, -8, -7.4, i, -2.1, nt
51: Cc1cc(N2CCCCC2)nc(SCc2ccc(C#N)cc2)n1
→ 0.69, nt, nt, nt, -10, nt, nt, -2.9, 0%
52: C[C@@H]1CN([C@H](C)CO)C(=O)c2cc(NS(=O)(=O)c3ccccc3)ccc2O[C@H]1CN(C)Cc1ccc(C(=O)O)cc1
→ nt, 3, 11, 1.3, nt, -2.9, i, nt, nt
53: Cc1c(NC(=S)NC(=O)c2ccc(Cl)cc2)c(=O)n(-c2ccccc2)n1C
→ 0.63, -1, 6, 7.2, 3, -2.6, nt, -4.5, nt
54: COC(=O)CCCC(=O)NC1CCCc2c1cnn2-c1ccc(F)cc1F (configuration not stated)
→ 0.66, 16, 13, 4.2, -1, -1.1, i, 2.5, nt
55: O=C(CN1CCCN(Cc2ccc(F)cc2Cl)C1=O)NCc1ccccc1
→ 0.75, nt, nt, nt, 10, nt, nt, -2.5, ?
56: CCOC(=O)c1cnn(Cc2ccccc2Cl)c1N
→ 0.71, nt, nt, nt, 0, nt, nt, 3.3, -5%
57: CCN1C(=O)CCN(C2CCCC2)c2nc(Nc3ccc(C(=O)NC4CCN(C)CC4)cc3OC)ncc21
→ nt, -12, 0, -2.0, nt, 6.1, i, 4.2, nt
58: O=C1CCCC2=C1C(c1ccc(O)c(O)c1)Nc1ccc3ncccc3c12 (configuration not stated)
→ 0.65, -6, -3, -6.7, 99*, 1.9, i, -10, ?
59: O=C(Cc1ccc(NC(=O)C2CCCN(C(=O)C3CCC3)C2)cc1)Nc1cccc(C(=O)N2CCCC2)c1 (configuration not stated)
→ 0.7, 0, 2, 5.3, nt, -5.5, i, 1.7, -5%

Screening results from PubChem BioAssay.

Only part of the results is shown; the hit share may differ from the screen's.
